Source: PubChem
ALR H2O2 inh – blocks human ALR sulfhydryl oxidase activity. purified ALR, DTT oxidation, H2O2 HRP-luminol luminescence. inhibition, % (concentration not given with the values). hit rate 3.8% among 290,000;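 active = mean and each replicate at 75% or more; inconclusive = only one of the two met; inactive = neither met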;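 also: stock transfer was 7.5 nL into about 7.5 µL; 0% = neutral wells and 100% = wells with inactivated enzyme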
FGF22 binding – shifts melting point of recombinant human FGF22; recombinant FGF22 thermal shift, SYPRO orange fluorescence; percent of sucrose octasulfate shift, DMSO zero; Q9HCT0; hit rate 1.5% among 340,000; calls only at 9.99 µM;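 active = melting point raised past a set limit in the mean and every replicate; inconclusive = no clear call; three in four hits are not shown here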
Target sequence (Q9HCT0 whole entry, looked up): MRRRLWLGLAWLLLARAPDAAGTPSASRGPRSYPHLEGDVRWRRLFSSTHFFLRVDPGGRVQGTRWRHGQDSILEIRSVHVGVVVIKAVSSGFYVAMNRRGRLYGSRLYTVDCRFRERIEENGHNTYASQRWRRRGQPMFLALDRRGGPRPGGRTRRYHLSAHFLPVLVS
rRNA inh HTS – inhibits bacterial ribosomal RNA function over humanized ribosomes; GFP signal change (wild-type ribosome), % (no concentration beside the values); AID 720706; E. coli WT GFP vs humanized-ribosome RFP mutants, fluorescence, 24 h; active compounds read low; DMSO median 0, no signal -100; hit rate 1.6% among 350,000;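 active = significant combined selectivity score with lowered wild-type GFP, culture density cut under 30%, mutant RFP and density less affected; inactive = any of these conditions unmet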; also: one replicate is shown; some compounds called inactive have numbers as strong as hits
Vif TR-FRET – HIV-1 Vif–A3G interaction blockers – biochemical, TR-FRET, GST-Vif 1-94, biotin-A3G peptide, dose response retest, primary screen (AID 1117319); TR-FRET GST-Vif / biotin-A3G peptide binding; higher % means a stronger effect; test concentration not given here; strong numbers were not always called active; one-dose inhibition, %; IC50 in µM for titrated hits; hit rate 0.57% among 260,000;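 active = above the screen mean plus three standard deviations and confirmed in dose response; inconclusive = results disagree or hit not tested in dose response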;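 also: Vif residues 1-94 fused to GST binding biotinylated APOBEC3G peptide 110-148; 0% = full assay without inhibitor and 100% = GST in place of GST-Vif; retest series ran down from 100 µM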
E coli growth – inhibitors of Escherichia coli growth | OD600, 23 h; active compounds read low | OD600 absorbance (test concentration not listed) | hit rate 0.21% among 330,000 | AID 1053175;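 active = OD600 absorbance below the run mean of sample wells minus 3.6 SD, in any replicate, cut at about 0.56 in these data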;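 also: stock transfer was 300 nL into about 60 µL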
HNF4A DNA FP – change in binding of human HNF4 alpha to DNA; HNF4a-FITC DNA binding, fluorescence polarization, 1 h; activity change, % at 10 µM; hit rate 0.3% among 360,000; in the data active = activity change above about 30%, passing the limit was not always enough;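 also: controls were the assay level and a saturating level of protein; the project sought stronger binding though the title names inhibitors; some compounds called inactive have numbers as strong as hits; positive values seem to mean higher polarization but the record does not say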
MLL AF4-AF9 inh – inhibitors of human MLL-AF4/AF9 interaction; AlphaScreen, biotin-AF4 peptide binding to FLAG-AF9; AID 651704; hit rate 0.47% among 350,000; inhibition, % at 10 µM; P42568;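 active = every replicate reaching a set inhibition limit, whatever the replicate mean, cut at about 25% in these data; inconclusive = mean inhibition reaches that limit but some replicates miss it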;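 also: 0% = plate neutral control median and 100% = total signal loss; the record names both 10 and 1 µM as test concentration; the first replicate is given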
Target sequence (P42568 whole entry, looked up): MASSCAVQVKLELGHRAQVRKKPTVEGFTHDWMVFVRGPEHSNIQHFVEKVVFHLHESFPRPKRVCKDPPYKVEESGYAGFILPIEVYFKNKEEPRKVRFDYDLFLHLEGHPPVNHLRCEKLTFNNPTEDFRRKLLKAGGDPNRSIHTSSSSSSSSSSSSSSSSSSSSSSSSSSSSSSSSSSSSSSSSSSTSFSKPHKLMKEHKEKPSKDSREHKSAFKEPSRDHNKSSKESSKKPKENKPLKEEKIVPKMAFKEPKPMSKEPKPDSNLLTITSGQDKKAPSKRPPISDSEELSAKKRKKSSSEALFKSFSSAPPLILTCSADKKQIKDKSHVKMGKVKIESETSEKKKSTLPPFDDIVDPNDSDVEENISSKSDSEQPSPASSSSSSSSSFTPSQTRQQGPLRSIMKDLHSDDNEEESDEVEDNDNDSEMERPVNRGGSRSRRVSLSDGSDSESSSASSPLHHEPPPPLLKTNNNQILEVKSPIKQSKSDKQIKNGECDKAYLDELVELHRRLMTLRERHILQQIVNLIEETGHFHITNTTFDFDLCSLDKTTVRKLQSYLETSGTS
rRNA inh HTS OD600 – recorded beside rRNA inh HTS, whose call it bears; OD600 change, %; measured here: OD600 growth;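 optical density of the mix in the first replicate; 0 = DMSO median and -100 = no signal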
rRNA inh HTS RFP – also measured in rRNA inh HTS; calls as there; RFP signal change, %; measured here: RFP humanized mutant strains;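 first replicate; 0 = DMSO median and -100 = no signal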
Numbers without * were called inactive; i = inactive; ? = inconclusive; · = no result given. This is a subset; the hit share may differ from the screen's.

item	compound	ALR H2O2 inh	FGF22 binding	rRNA inh HTS	rRNA inh HTS OD600	rRNA inh HTS RFP	Vif TR-FRET	E coli growth	HNF4A DNA FP	MLL AF4-AF9 inh
1	Cc1ccsc1C(=O)NCc1ccccc1Cl	0	i	-8	-26	-2.3	·	0.68	-3.4	-0.5
2	CCOC(=O)c1oc2ccccc2c1NC(=O)C(C)(C)C	1	i	-2	-3	-0.9	5%	0.72	5.1	-2.1
3	C[C@@H]1CN([C@H](C)CO)C(=O)c2cccc(NS(=O)(=O)c3ccc(Cl)cc3)c2O[C@H]1CN(C)Cc1ccncc1	·	i	3	2	0.2	·	·	·	-0.2
4	CCCC(=O)Nc1nnc(CC(=O)OCC)s1	-9	·	·	·	·	1%	0.66	-0.3	·
5	O=C(C[C@H]1C=C[C@@H](NC(=O)Nc2ccccc2F)[C@@H](CO)O1)NCc1ccc(Cl)cc1	·	i	-7	-5	-3.1	·	·	·	-0.4
6	COc1ccc(Cl)cc1NC(=S)NCc1ccc(S(N)(=O)=O)cc1	·	i	·	·	·	·	0.67	1.0	1.3
7	COCC#Cc1ccc([C@H]2[C@@H](CO)N3CCCCN(S(=O)(=O)c4ccccc4F)C[C@@H]23)cc1	·	i	-7	-9	1.9	·	·	·	-4.2
8	COc1ccccc1N1CCN(C(=S)Nc2ccc(F)cc2)CC1	23	i	-1	5	-6.4	4%	0.69	2.0	0.1
9	CC(C)C#Cc1cnc2c(c1)C(=O)N([C@@H](C)CO)C[C@@H](C)[C@@H](CN(C)C(=O)c1cccc(F)c1)O2	·	i	2	5	-0.9	·	·	·	-2.7
10	CCOP(=O)(OCC)C(O)c1cc(OC)c(OC)c(OC)c1 (configuration not stated)	4	i	1	-1	-1.0	·	0.72	3.7	-14

A second format for some results above.
cpd | ALR H2O2 inh | FGF22 binding | rRNA inh HTS | rRNA inh HTS OD600 | rRNA inh HTS RFP | Vif TR-FRET | E coli growth | HNF4A DNA FP | MLL AF4-AF9 inh | mol
9 | · | i | 2 | 5 | -0.9 | · | · | · | -2.7 | CC(C)C#Cc1cnc2c(c1)C(=O)N([C@@H](C)CO)C[C@@H](C)[C@@H](CN(C)C(=O)c1cccc(F)c1)O2
4 | -9 | · | · | · | · | 1% | 0.66 | -0.3 | · | CCCC(=O)Nc1nnc(CC(=O)OCC)s1

(list continues)
item	compound	ALR H2O2 inh	FGF22 binding	rRNA inh HTS	rRNA inh HTS OD600	rRNA inh HTS RFP	Vif TR-FRET	E coli growth	HNF4A DNA FP	MLL AF4-AF9 inh
11	O=C(OC(C(=O)NC1CCCC1)c1cccnc1)C1=Cc2ccccc2OC1 (configuration not stated)	·	·	·	·	·	1%	0.69	2.1	·
12	CC(C)(C)OC(=O)C[C@H]1C/C=C\C[C@H](CC(=O)N[C@H](CO)Cc2ccccc2)C(=O)N2CCC[C@H]2COC1=O	1	i	1	3	1.0	-4%	0.68	-2.1	-3.7
13	CN1C(=O)c2cc(NS(=O)(=O)c3ccccc3Cl)ccc2OC[C@H]2O[C@H](CC(=O)O)CC[C@H]21	·	i	5	0	1.0	·	·	·	-1.6
14	COc1ccc(C(=O)NC2CC2)cc1OC1CCN(Cc2ccc(F)cc2Cl)CC1	2	i	5	-1	-1.2	-5%	0.65	-1.2	4.8
15	O=C(Nc1nccs1)c1ccc(Br)c(S(=O)(=O)N2CCCC2)c1	1	i	-4	-10	1.8	·	0.72	1.0	1.9
16	O=C(COC(=O)c1cccc(Cl)c1Cl)NCc1cccs1	·	i	-16	-14	1.7	-3%	0.64	2.8	0.7
17	CCn1c(=O)c(C(=O)NNS(=O)(=O)c2ccc(NC(=O)OC)cc2)c(O)c2ccccc21	·	i	2	5	0.8	·	0.7	0.6	-0.9
18	O=C(NCC1CC1)c1ccccc1Cl	-13	i	5	7	-1.9	-4%	0.66	3.7	-0.6
19	CC(=O)N/N=C(\C)CC(=O)Nc1cccc2c1CCCC2	1	i	6	4	-1.2	·	·	1.0	-2.1
20	Cc1sc(N)nc1-c1ccccc1	43	i	-3	-8	1.6	9%	0.69	-2.6	0.3

(listing goes on)
item	compound	ALR H2O2 inh	FGF22 binding	rRNA inh HTS	rRNA inh HTS OD600	rRNA inh HTS RFP	Vif TR-FRET	E coli growth	HNF4A DNA FP	MLL AF4-AF9 inh
21	CCN(CC)C(=O)Oc1ccc(Br)cc1C(=O)Nc1ccc(F)cc1F	-10	i	3	4	-3.3	-5%	0.7	3.0	2.4
22	COc1nc(NCc2ccco2)nc(NC2CCCCC2)n1	·	·	·	·	·	-2%	0.69	3.6	·
23	COc1ccc(C(C)=O)c2c(O)cccc12	-15	·	·	·	·	18%	0.7	2.0	·
24	Cc1cc(C)nc(N2CCCC(C(=O)Nc3cccc(Cl)c3)C2)n1 (configuration not stated)	-2	i	5	8	2.6	-6%	0.71	0.2	-0.9
25	CCCc1cc2c(=O)c(-c3ccc4c(c3)OCCO4)c(C)oc2cc1OS(C)(=O)=O	-5	·	·	·	·	11%	0.78	1.1	·
26	O=C(C[C@H]1C=C[C@@H](NS(=O)(=O)c2ccccc2)[C@H](CO)O1)NCc1ccccc1F	·	i	-1	2	-2.2	·	·	·	-3.4
27	CN(C)S(=O)(=O)Oc1ccsc1C(=O)Nc1ccc(Cl)cc1	·	·	·	·	·	?	0.68	-1.0	·
28	NC(=O)c1ccc(NC(=O)COC(=O)c2ccc(Br)o2)cc1	0	i	1	0	-2.3	-4%	0.68	-3.1	1.3
29	Clc1cc2nc3ccccn3c2cc1Cl	-2	·	·	·	·	-2%	0.7	0.9	·
30	C=CC[C@H](CC(=O)N(CCO)Cc1ccccc1)C(=O)NC[C@H](OC(=O)[C@@H](CC=C)Cc1ccc(F)cc1)c1ccccc1	-2	i	7	-1	0.7	·	·	3.1	1.0
31	Cc1cccc(C(=O)NCCN(C)C)c1	2	·	·	·	·	0%	0.66	-0.3	·

Of the compounds above, these have nitrogen in an aromatic ring.
item	compound	ALR H2O2 inh	FGF22 binding	rRNA inh HTS	rRNA inh HTS OD600	rRNA inh HTS RFP	Vif TR-FRET	E coli growth	HNF4A DNA FP	MLL AF4-AF9 inh
3	C[C@@H]1CN([C@H](C)CO)C(=O)c2cccc(NS(=O)(=O)c3ccc(Cl)cc3)c2O[C@H]1CN(C)Cc1ccncc1	·	i	3	2	0.2	·	·	·	-0.2
4	CCCC(=O)Nc1nnc(CC(=O)OCC)s1	-9	·	·	·	·	1%	0.66	-0.3	·
9	CC(C)C#Cc1cnc2c(c1)C(=O)N([C@@H](C)CO)C[C@@H](C)[C@@H](CN(C)C(=O)c1cccc(F)c1)O2	·	i	2	5	-0.9	·	·	·	-2.7
11	O=C(OC(C(=O)NC1CCCC1)c1cccnc1)C1=Cc2ccccc2OC1 (configuration not stated)	·	·	·	·	·	1%	0.69	2.1	·
15	O=C(Nc1nccs1)c1ccc(Br)c(S(=O)(=O)N2CCCC2)c1	1	i	-4	-10	1.8	·	0.72	1.0	1.9
17	CCn1c(=O)c(C(=O)NNS(=O)(=O)c2ccc(NC(=O)OC)cc2)c(O)c2ccccc21	·	i	2	5	0.8	·	0.7	0.6	-0.9
20	Cc1sc(N)nc1-c1ccccc1	43	i	-3	-8	1.6	9%	0.69	-2.6	0.3
22	COc1nc(NCc2ccco2)nc(NC2CCCCC2)n1	·	·	·	·	·	-2%	0.69	3.6	·
24	Cc1cc(C)nc(N2CCCC(C(=O)Nc3cccc(Cl)c3)C2)n1 (configuration not stated)	-2	i	5	8	2.6	-6%	0.71	0.2	-0.9
29	Clc1cc2nc3ccccn3c2cc1Cl	-2	·	·	·	·	-2%	0.7	0.9	·
